eIF4H inh = human eIF4H binding inhibitors, primary screen, translation initiation inhibitor project, biochemical, uHTS, fluorescence polarization; Eukaryotic translation initiation factor 4H (Homo sapiens), Q15056; eIF4H fluorescence polarization binding assay; inhibition, % at 35 µM; 0.94% of 290,000 active; AID 2012, 2009;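 active means 50% or more with normal probe brightness, or confirmed in later tests; about a fifth of its hits are not listed in these tables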;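 further: calls also rest on retests at 20 µM and on dose response follow-up; 0% = protein and probe with vehicle and 100% = probe without protein; strong numbers were not always called active; many hits fall short of the cut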
PABP FP inh = PABP poly(A) RNA binding inhibitors, primary screen, biochemical, fluorescence polarization, uHTS | inhibition, % at 35 µM | 1% of 290,000 active;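 active means 50% or more with normal probe brightness, or confirmed in later tests; about a fifth of its hits are not listed in these tables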;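 further: calls also rest on retests at 20 µM and on dose response follow-up; controls were probe without protein and protein plus probe with vehicle; some compounds called inactive have numbers as strong as hits; many hits fall short of the cut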
Rce1 inh = yeast Rce1p protease inhibitors, primary screen, biochemical, fluorescence, cell-free homogeneous; yeast membranes, quenched prenylated peptide cleavage fluorescence; calls only; 0.27% of 290,000 active;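 active means fall in fluorescence gain of 50% or more versus controls, with final raw signal at or below 3038400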;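 further: plate controls were neutral control wells for no effect and wells lacking membranes for full effect; tested at 10 µM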
Target sequence (Q03530 whole entry, looked up): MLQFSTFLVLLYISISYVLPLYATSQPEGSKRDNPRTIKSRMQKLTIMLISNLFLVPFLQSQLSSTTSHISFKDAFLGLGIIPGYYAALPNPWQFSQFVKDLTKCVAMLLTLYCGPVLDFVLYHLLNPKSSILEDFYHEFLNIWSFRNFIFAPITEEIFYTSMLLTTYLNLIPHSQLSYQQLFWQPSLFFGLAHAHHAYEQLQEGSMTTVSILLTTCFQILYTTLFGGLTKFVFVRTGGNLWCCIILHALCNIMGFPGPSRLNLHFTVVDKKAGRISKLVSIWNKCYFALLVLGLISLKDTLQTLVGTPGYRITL
MT1-MMP act inh = blockers of MT1-MMP proenzyme processing, primary screen, HT1080 RFP-PRO-GFP cells, GFP/RFP fluorescence | Matrix metalloproteinase-14 (Homo sapiens), P50281 | GFP/RFP ratio fluorescence, overnight; percent of plate control window, DMSO zero | GFP/RFP ratio change, % at 20 µM | 0.061% of 360,000 active | AID 651647, 2012;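 active means GFP/RFP ratio change of at least 30% with cell ATP level not reduced by more than half and red fluorescence within 50% of control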; further: strong numbers were not always called active
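Assay system – RFP-PRO-GFP reporter HT1080 cells · Compound dosing – single dose of 20 µM compound, 1% DMSO final · Incubation – overnight compound exposure at 37 °C · Measure – GFP/RFP fluorescence ratio · Benchmarks – DMSO wells and RFP-L50D-GFP cells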
CSC inhib = cancer stem cell viability inhibitors, primary screen, luminescence | cancer stem cell-like cells viability | inhibition, % at 7.5 µM | 1.1% of 300,000 active | AID 2717, 2010;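 active means mean at 75% or more and at least half the replicates too; tested in HMLE shEcad cells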;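 further: 0% = median of negative and 100% = median of positive control wells; the first replicate is given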
UUG fidelity = modulators of yeast start codon fidelity, primary screen, whole organism, S. cerevisiae, single point, plate reader. 0.13% of 350,000 active. activity score, % at 18.7 µM. S. cerevisiae UUG-firefly luciferase reporter, luminescence/redox ratio;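 active means replicate mean at a twofold rise or more, about +100% in these data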;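 further: firefly luciferase made from a UUG start codon reports start codon fidelity; reporter light over untreated wells divided by growth signal over untreated wells; some hits fall short of that in this replicate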
Env fusion inh = inhibitors of HIV-1 Env-driven cell-cell fusion, primary screen, HeLa-JRFL effector, CEM21 target cells, luciferase | inhibition, % at 12.3 µM | 1.1% of 360,000 active | AID 651610, 2012;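 active means mean replicate inhibition score of at least 50 and every replicate individually at or above 50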;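 further: 0% = plate neutral controls and 100% = maraviroc near 300 nM; one replicate is shown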
eIF4H inh retest = second read-out of eIF4H inh, no call of its own (marks repeat the call); inhibition, %; compound at 20 µM; confirmation average;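 mean of two retest wells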
PABP FP inh retest = further read-out of PABP FP inh, marked with its call; inhibition, %; compound at 20 µM; confirmation repeats;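 mean of two retest wells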
MT1-MMP act inh RFP = further read-out of MT1-MMP act inh, marked with its call; RFP signal change, %; measured here: RFP expression control read;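 0 = vehicle wells; hits needed this value within 50% of zero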
* hit, by the source's call; i = inactive; / = not tested or not shown; & = joins results of further samples.

SMILES | eIF4H inh | PABP FP inh | Rce1 inh | MT1-MMP act inh | MT1-MMP act inh RFP | CSC inhib | UUG fidelity | Env fusion inh | others
C[C@H](CO)N1C[C@H](C)[C@H](CN(C)S(=O)(=O)c2ccc(F)cc2)OCc2cnnn2CCCC1=O | / | / | / | 2.3 | 5.1 | / | -2.8&-14.1&3.1 | 15.0
CCN(CC)C(=O)c1c([N+](=O)[O-])c(C(C)(C)C)nn1C | 1.0 | 2.8 | i | 2.7 | 4.5 | 4.7 | / | /
O=S(=O)(c1ccc(F)c(F)c1)N1CCCCCCC1 | / | / | / | -3.0 | 2.9 | / | -19.5 | 11.4
COc1cc(OC)cc(C(=O)NNC(=O)c2ccccn2)c1 | -1.2 | -3.5 | i | 2.0 | -1.3 | 22.3 | -17.2 | 37.1
COCCNC(=S)N/N=C/c1ccc(OCc2ccc(C(=O)OC)cc2)cc1 | -6.4 | 4.9 | i | 1.0 | 4.8 | / | / | -14.2
CCOc1ccccc1NC(=O)Nc1ccon1 | 1.3 | 3.3 | i | -6.7 | -1.1 | -10.7 | -1.0 | -10.3
COc1ccc(-c2cc3c(=O)n(CC(=O)NCc4ccccc4F)ncn3n2)cc1 | -4.5 | -10.3 | i | 0.3 | 2.5 | -5.5 | -15.2 | -10.1
COC(=O)c1ccc(CSc2nc3ccccc3c(=O)n2-c2cccc(OC)c2)o1 | -6.6 | 0.4 | i | -2.5 | 2.6 | -7.2 | -19.2 | /
CCCCOC(=O)Cn1c(=O)c2c(nc(Br)n2Cc2ccccc2)n(C)c1=O | -13.4 | -9.3 | i | 2.4 | -3.4 | -3.1 | 4.4 | -43.4
N#CC1=C(N)Oc2c(sc3ccccc23)C1c1ccco1 (stereo not given) | 74.0* | 86.3* | i | -55.6 | 12.0 | 2.8 | 0.6 | /
Cc1nnsc1C(=O)NNc1ccc(Cl)cc1 | -1.1 | 15.0 | / | 4.4 | 7.3 | 6.9 | / | 1.0
CC1CSc2n(-c3cccc(C(F)(F)F)c3)cc(-c3ccccc3)[n+]21 (stereo not given) | -6.0 | -3.5 | i | -6.9 | -8.0 | -18.4 | / | 11.1
CC(C(=O)O)n1c2ccccc2c2cn[nH]c(=O)c21 (stereo not given) | 1.9 | 6.3 | i | -8.7 | -4.5 | -12.8 | -4.3 | -16.2
CC(C)C(NS(=O)(=O)/C=C/c1ccccc1)C(=O)NCc1ccc(F)cc1 (stereo not given) | -2.8 | -6.4 | i | -1.4 | 0.4 | / | -11.9 | 36.1
Cc1nc(N)sc1-c1csc(NCc2ccccc2)n1 | 10.7 | 22.0 | i | -2.8 | 5.7 | / | -2.4 | /
O=C(COC(=O)c1ccccc1O)Nc1ccc2ccccc2c1 | / | / | / | 0.2 | 0.2 | 2.5 | -1.9 | i
CCC(=O)Nc1ccc(N/C(N)=N/c2nc(C)cc(C)n2)cc1 | 2.9 | 23.1 | i | 0.4 | 2.9 | -5.9 | / | -5.4
Cc1ccc2[nH]c(=O)c(CN(Cc3cccnc3)Cc3nnnn3CCN3CCOCC3)cc2c1 | -1.7 | 10.3 | i | -1.1 | -2.2 | / | -5.6 | -51.3
Cc1ccc(-c2ccc(=O)n(CC(=O)N3CCN(c4cc(Cl)ccc4C)CC3)n2)cc1 | -0.3 | 4.8 | i | 8.0 | -5.6 | 3.2 | -0.1 | /
COc1ccccc1N1Cc2ccccc2C1 | 5.7 | 3.8 | i | -2.8 | 6.4 | 15.9 | -11.0 | -14.0
Cc1ccc(CSc2[nH]c(=O)ncc2C)cc1 | -4.5 | -6.3 | i | -4.6 | -2.3 | -15.4 | -17.5 | 2.4
C#CCOCCOCCOCCNc1nc(N2CCN(C(=O)CCCCCCCCCCNC(=O)[C@H](CCCCN)n3cc(C)nn3)CC2)nc(N2CCN(C(=O)CCCCCCCCCCNC(=O)[C@@H]([C@H](C)CC)n3cc(CCCCCN)nn3)CC2)n1 | / | / | / | 4.0 | 4.8 | 168.3* | 2.4 | /
CCN1C(=O)CC(N2CCN(C(c3ccccc3)c3ccccc3)CC2)C1=O (stereo not given) | -1.2 | -3.7 | i | -6.9 | 1.1 | 24.7 | 0.2 | /
COc1ccc(OC)c(C(c2nnnn2C2CCCC2)N2CCN(c3ccccc3)CC2)c1 (stereo not given) | -10.6 | 25.1 | i | 0.2 | -2.6 | -5.0 | -43.4 | /
CC1CCCCC1NC(=O)CCNS(=O)(=O)c1ccc(Cl)cc1 (stereo not given) | -8.8 | -7.3 | i | 0.1 | -1.7 | -4.0 | -1.8 | 8.6

Reprinted at random: 4 entries already listed
SMILES | eIF4H inh | PABP FP inh | Rce1 inh | MT1-MMP act inh | MT1-MMP act inh RFP | CSC inhib | UUG fidelity | Env fusion inh | others
Cc1nc(N)sc1-c1csc(NCc2ccccc2)n1 | 10.7 | 22.0 | i | -2.8 | 5.7 | / | -2.4 | /
COc1cc(OC)cc(C(=O)NNC(=O)c2ccccn2)c1 | -1.2 | -3.5 | i | 2.0 | -1.3 | 22.3 | -17.2 | 37.1
N#CC1=C(N)Oc2c(sc3ccccc23)C1c1ccco1 (stereo not given) | 74.0* | 86.3* | i | -55.6 | 12.0 | 2.8 | 0.6 | /
COC(=O)c1ccc(CSc2nc3ccccc3c(=O)n2-c2cccc(OC)c2)o1 | -6.6 | 0.4 | i | -2.5 | 2.6 | -7.2 | -19.2 | /

Next part:
SMILES | eIF4H inh | PABP FP inh | Rce1 inh | MT1-MMP act inh | MT1-MMP act inh RFP | CSC inhib | UUG fidelity | Env fusion inh | others
O=C(Cc1cccs1)N1CCCC(c2nc3c(nnn3Cc3ccc(F)cc3)c(=O)[nH]2)C1 (stereo not given) | -5.2 | 0.7 | i | 4.1 | 1.3 | / | 1.9 | -22.6
Cc1cccc(-n2ncc3c(N4CCc5ccccc54)ncnc32)c1 | -7.5 | -4.7 | i | / | / | -5.0 | / | /
COc1cc(C2c3[nH]c4ccccc4c3C[C@H]3C(=O)N(CCO)CC(=O)N23)cc(OC)c1OC (stereo not given in full) | 5.2 | 9.6 | i | 2.1 | 2.6 | -8.3 | -19.8 | -9.3
COc1ccc(NC(=O)C2(C)CCN2CCc2ccccc2)cc1OC (stereo not given) | / | / | / | 3.8 | 1.3 | / | 4.4 | -9.2
CCOC(=O)c1c(NC(=O)CSc2ncnc3ccccc23)sc(C)c1C | 3.8 | 12.9 | i | -12.0 | -0.7 | / | / | 8.9
O=C(O)CCC(=O)N1CCN(c2cccc(Cl)c2)CC1 | 0.6 | -7.5 | i | 6.4 | 7.7 | -5.7 | -6.5 | /
CCCS(=O)(=O)c1c(S(=O)(=O)CCC)c2cnccn2c1C(=O)c1ccc(CC)cc1 | 4.1 | -5.3 | i | -7.6 | -6.6 | 1.1 | 0.9 | /
Cc1cc(-c2c(C(=O)N3CCOCC3)c(C)nn2-c2ccccc2)no1 | -2.3 | -7.9 | i | -2.7 | -7.7 | -8.7 | -7.7 | 0.5
COCc1ccc([C@@H]2C[C@H]3CN(Cc4ccccc4C)C(=O)[C@]34CCCN24)o1 | -5.2 | -0.9 | i | -1.5 | 1.2 | -5.5 | -2.8 | -1.6
CC(C)CCn1c(C(C)O)nc2ccccc21 (stereo not given) | 3.2 | -9.9 | / | 3.0 | 1.3 | 10.2 | -27.6 | /
Cc1ccc(S(=O)(=O)N(C)c2ccc(C)c([N+](=O)[O-])c2)cc1 | -1.5 | -7.1 | i | 1.7 | 0.5 | 1.6 | / | -1.3
c1ccc2c(-c3nc(-c4ccncc4)no3)cccc2c1 | -11.7 | -3.2 | i | -6.3 | -4.3 | -5.1 | -16.5 | -84.4
FC(F)(F)c1ccccc1Cc1c(-c2ccco2)nc2ccc(Br)cn12 | / | / | / | 0.1 | -2.6 | / | -15.9 | 24.9
CC1CCN(C(=O)Cn2c(SCC(=O)Nc3nccs3)nc3ccccc32)CC1 | -5.9 | -7.7 | i | 5.0 | -2.2 | -5.3 | 6.8 | -30.8
COc1cc(/C=C/C(=O)OCC(=O)c2ccc[nH]2)ccc1O | / | / | / | 1.9 | 3.8 | / | -7.1 | -6.9
CCN(CC)CCN(C(=O)c1ccc2c(c1)CCCC2)c1nc2ccc(OC)cc2s1 | 1.5 | -6.5 | i | -4.8 | 1.9 | -1.5 | -5.0 | 14.1
CC(/C=N/NC(=O)CSc1nc(C)cc(C)n1)=C\c1ccccc1 | 75.2 | -5.4 | i | -8.5 | -9.3 | 0.4 | -12.6 | 12.3 | eIF4H inh retest=-7.5;PABP FP inh retest=1.7
CC(=O)N=c1sccn1CC(O)c1ccccc1 (stereo not given) | 4.4 | 6.6 | i | -1.3 | -2.8 | -3.2 | -15.1 | 6.4
COC(=O)c1cnc(N2CCOCC2)nc1C(F)(F)F | -6.0 | 3.6 | i | 0.8 | 5.8 | -5.6 | / | 4.8
O=C(Nc1ccc(N2CCOCC2)cc1)c1cnsn1 | -15.9 | -5.2 | i | -4.4 | -2.3 | / | -81.5 | /
COc1ccc(CN(C(=O)CCC(=O)Nc2cc(C)on2)C(C(=O)NC(C)(C)C)c2cccc(OC)c2OC)cc1 (stereo not given) | 12.0 | 2.4 | i | -4.8 | -5.3 | -3.3 | -7.7 | 12.9
CC(=O)c1ccc(OCC(O)CN2CCN(c3ccccn3)CC2)cc1 (stereo not given) | -8.2 | 15.2 | i | 5.2 | 3.5 | -16.0 | -9.8 | -15.5
O=C1Cc2ccccc2Sc2c(OCCN3CCCCC3)cccc21 | -2.0 | -11.6 | i | -0.6 | -3.9 | -14.1 | 4.3 | -34.1
CC(C)C[C@H](NC(=O)c1nc[nH]c1C(=O)N[C@@H](CC(C)C)C(=O)OC(C)(C)C)C(=O)OC(C)(C)C | 6.2 | 18.0 | i | -48.3 | -31.2 | -1.2 | -19.4 | 69.9*
O=c1ccc2cc(S(=O)(=O)Nc3ccc(F)cc3)ccc2o1 | -10.5 | 5.8 | i | 0.0 | -5.2 | -3.9 | -5.9 | /
Continued:
SMILES | eIF4H inh | PABP FP inh | Rce1 inh | MT1-MMP act inh | MT1-MMP act inh RFP | CSC inhib | UUG fidelity | Env fusion inh | others
COc1ccc(NC(=O)CSc2nnc(CNC(=O)COc3ccc(Cl)cc3)o2)c(OC)c1 | -18.5 | 1.1 | i | 4.2 | 3.5 | -17.2 | -22.4 | -31.4
COc1ccccc1C1CC(=O)NC(C)=C1C(=O)OCC1CCCO1 (stereo not given) | 0.5 | -6.8 | i | 6.7 | 5.4 | -7.1 | -5.8 | /
O=C(CC1Nc2ccccc2NC1=O)Nc1ccccc1NC(=O)CC1Nc2ccccc2NC1=O (stereo not given) | -5.8 | 2.9 | i | / | / | / | / | /
COc1ccc(CCN(C)C(=O)CSc2nnnn2C)cc1OC | 12.3 | 4.6 | i | 1.0 | 1.1 | 6.0 | / | 6.2
C/C=C(\C)CN1CCCC(N(C)CCc2ccc(OC)c(OC)c2)C1 (stereo not given) | -6.3 | 1.6 | i | -2.2 | 0.9 | 24.1 | 3.3 | 9.1
CCCn1nc(C(=O)OCC(=O)Nc2cccc(OC)c2)c2ccccc2c1=O | -0.8 | 1.2 | i | -0.2 | 3.4 | -14.8 | / | 10.2
CC(C)(C)OC(=O)N1CCC(C(=O)N[C@H](C(=O)O)c2ccccc2)(c2ccccc2)CC1 | -1.4 | -10.6 | i | 2.2 | 3.4 | 0.8 | 10.0 | -0.4
O=C(CN1C(=O)NC(c2ccccc2)(c2ccccc2)C1=O)NC1CCCC1 | / | / | / | -4.5 | 0.6 | 6.0 | -3.5 | /

Source: PubChem BioAssay

This is a subset; the hit share may differ from the screen's.
